From PubChem BioAssay
HPGD inh: inhibitors of human 15-hydroxyprostaglandin dehydrogenase (HPGD) | 150,000 compounds, 4.3% hits | purified HPGD, NADH fluorescence kinetic, PGE2 substrate | Potency, µM, for inactives: at the highest dose activity change, negative = inhibition, most hits filed as inhibitors | P15428; active = well fitted inhibition curve with a large enough effect (not every such curve was filed as active); inconclusive = small, poorly fitted or top-dose-only effect, or another doubt; inactive = no such curve, though single readings can be large or run the other way;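 further: top concentration of the series not given in the record; plate controls included wells without enzyme; inactives centre near -10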
Target sequence (P15428 whole entry, looked up): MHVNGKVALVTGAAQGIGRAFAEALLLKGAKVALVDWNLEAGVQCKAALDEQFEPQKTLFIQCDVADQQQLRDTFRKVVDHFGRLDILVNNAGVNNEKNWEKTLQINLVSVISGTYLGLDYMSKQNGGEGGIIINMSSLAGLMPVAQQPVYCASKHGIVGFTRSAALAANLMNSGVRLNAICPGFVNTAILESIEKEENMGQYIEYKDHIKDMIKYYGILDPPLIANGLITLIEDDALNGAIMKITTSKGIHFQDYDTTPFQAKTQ
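20 nM HPGD preincubated 15 min at room temperature with compound in 50 mM Tris-HCl pH 8, 0.01% Tween 20. Started with 1 mM NAD+ and 30 uM prostaglandin E2; NADH fluorescence (360/450 nm) read 5 times over 30-s intervals, last minus first.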
Numbers without * were called inactive; & = joins results of further samples; [ ] = remark or other dose. On the % scale 0 is the no-effect control and ±100 the full control effect; potency means the concentration at half of the fitted maximal effect. Some of the compounds tested. The share of hits here may be higher or lower than overall.

O=C(COc1ccc(Br)cc1)Nc1ccc(-c2nnc(-c3ccco3)o2)cc1 was read as HPGD inh -6.5%.
Screening O=C(CSc1nnc(-c2cccnc2)n1CCc1ccccc1)N1CCCCC1 returned HPGD inh -3.4%.
Screening Cc1ccc(NC(=O)OCCN2CCN(S(=O)(=O)c3ccc(C)cc3)CCC2=O)cc1 returned HPGD inh -0.6%&-3.3%.
`C#CCOCCOCCOCCNc1nc(N2CCN(C(=O)[C@H](C(C)C)n3cc(CCO)nn3)CC2)nc(N2CCN(C(=O)[C@H](C(C)C)n3cc(CCO)nn3)CC2)n1` gave HPGD inh -6.6%.
Screening C=C1C2C[C@H](O)C(C)(C)[C@@]2(O)[C@H](O)C[C@]23C[C@@](C)(O)[C@H](CC[C@H]12)[C@H]3O (some centres not stated) returned HPGD inh -0.8%.
Screening C=CCn1c(=O)c2ccccc2n2c(SCc3nc4ccccc4s3)nnc12 returned HPGD inh -12.6%.
Screening CC(C)c1nc2c(c(=O)c3ccccc3n2C)c(=O)n1-c1ccc(F)cc1 returned HPGD inh -7.6%.
`Cc1ccc(N2CC(C(=O)Nc3ccc(S(=O)(=O)N4CCOCC4)cc3)CC2=O)cc1` (configuration not stated) gave HPGD inh -10.4%.
CCCCCn1c(CN2CCN(c3cccc(Cl)c3)CC2)nc2c1c(=O)n(C)c(=O)n2C was read as HPGD inh -12.0%.
`Cc1ccc2cccc(O)c2[n+]1[O-]` gave HPGD inh -4.6%.

Brought forward from above: 3 entries, followed by the next part.
`Cc1ccc(N2CC(C(=O)Nc3ccc(S(=O)(=O)N4CCOCC4)cc3)CC2=O)cc1` (configuration not stated) gave HPGD inh -10.4%.
CCCCCn1c(CN2CCN(c3cccc(Cl)c3)CC2)nc2c1c(=O)n(C)c(=O)n2C was read as HPGD inh -12.0%.
`Cc1ccc2cccc(O)c2[n+]1[O-]` gave HPGD inh -4.6%.
For COc1ccc(/C=C/C(=O)c2ccc3c(c2)OCCO3)cc1[N+](=O)[O-] the results were HPGD inh -6.0%.
Cc1cc(C(=O)COC(=O)c2ccc[nH]c2=O)c(C)n1-c1ccccc1 was read as HPGD inh 4.1%.
Screening COC(=O)C1=C(O)/C(=C\c2ccc(CNS(=O)(=O)c3ccccc3)o2)N=C1C returned HPGD inh -23.5%.
For O=C1CCCN1CCCNc1ccc(S(=O)(=O)N2CCCCC2)cn1 the results were HPGD inh -23.8%.
Screening Nc1nnc(-c2ccccc2)s1 returned HPGD inh -10.0%.
Screening CCOC(=O)CSc1nc2ccc(S(=O)(=O)N3CCOCC3)cc2[nH]1 returned HPGD inh -6.5%.
Screening CC(C)OP(=O)(OC(C)C)C(NC(=O)c1ccc(Br)cc1)c1ccccc1 (configuration not stated) returned HPGD inh -6.0%.
Screening CC(C)(C)NC(=O)C(Cc1ccccc1)NS(=O)(=O)c1cccc2nsnc12 (configuration not stated) returned HPGD inh -10.5%.
Screening O=C(CSc1nncn1-c1ccccc1)NCc1cccs1 returned HPGD inh -2.4%.
CCn1cc(SCC(N)=O)c2ccccc21 was read as HPGD inh -12.1%.
O=C(NCCc1ccccc1)C1CCCN(S(=O)(=O)c2cnc[nH]2)C1 (configuration not stated) was read as HPGD inh -5.9%.
For Cc1ccc(NC(=O)N(Cc2nc3ccccc3c(=O)[nH]2)Cc2cccs2)cc1 the results were HPGD inh -9.2%.
For COC(=O)C(Oc1ccc2c(-c3ccc(OC)cc3)cc(=O)oc2c1)c1ccccc1 (configuration not stated) the results were HPGD inh inconclusive.
For CCCCNC(=O)CCNS(=O)(=O)c1ccc(Br)cc1 the results were HPGD inh -5.0%.
For O=C(NCCc1c[nH]c2ccccc12)c1ccc(S(=O)(=O)NCc2ccco2)cc1 the results were HPGD inh -20.0%.
`Cc1ccc(-n2c(SCC(=O)Nc3ccc4c(c3)OCO4)nnc2-c2ccccn2)cc1` gave HPGD inh -3.0%.
Screening c1ccc(-c2nc3ccccc3o2)nc1 returned HPGD inh inconclusive.
Screening Cc1ccc(-n2c(SCC(=O)Nc3cccc(S(N)(=O)=O)c3)nc3ccccc32)cc1 returned HPGD inh -3.9%.
Screening COc1ccc(-c2nnc(SCC(=O)N3CCCc4ccccc43)o2)cc1OC returned HPGD inh -13.0%.
C/C(=N\Nc1ccc(Cl)c(Cl)c1)c1ccc(-n2ccnc2)cc1 was read as HPGD inh -23.1%.
Screening CC1=C(NCCc2ccccc2)CCC1=O returned HPGD inh -3.0%.
Screening CCn1c(=O)c(C(=O)CN2CC(C)OC(C)C2)c(N)n(Cc2ccccc2)c1=O (configuration not stated) returned HPGD inh -2.7%.
Screening CC1=C(C/C=C(\C)CCCC(C)CCCC(C)CCCC(C)C)C(=O)c2ccccc2C1=O (configuration not stated) returned HPGD inh -10.7%.
For CN(c1ccccc1)C(c1ccc(F)cc1)c1nnnn1CC1CCCO1 (configuration not stated) the results were HPGD inh 0.1%.
Screening CN1[C@@H](c2ccccc2)CC(=NO)C[C@H]1c1ccccc1 returned HPGD inh -2.7%.
For O=C(O)CSc1nnc(-c2ccccc2)o1 the results were HPGD inh -2.9%.
`N#Cc1c2c(c(N3CCN(CCO)CC3)n3c1nc1ccccc13)CCCC2` gave HPGD inh -11.7%.
`CCN(CC)c1ccc2cc(-c3nc(-c4ccc(OC)cc4)cs3)c(=O)oc2c1` gave HPGD inh -7.5%.
`COc1ccccc1/C=C/C(=O)N1CCOCC1` gave HPGD inh inconclusive.
For CN1CC2CCCC3(C1)C(=O)NC1(CCCCC1)N=C23 (configuration not stated) the results were HPGD inh -5.1%.
Screening COc1ccc(NC(=O)C2CCCNC2)cc1OCC(C)C (configuration not stated) returned HPGD inh -5.5%.
O=C(NN1C(=O)c2ccccc2C1=O)C1CCCCC1 was read as HPGD inh -6.6%.
For COc1cc(OC)cc(C(=O)N(CCCN2C(=O)c3cccc4cccc(c34)C2=O)c2cccc(OC)c2)c1 the results were HPGD inh inconclusive.
`COc1ccccc1C(=O)NCc1ccc(-c2nc3ccccc3s2)cc1` gave HPGD inh 17.8µM*.
Cn1c(SCC(=O)NCc2cccs2)nnc1-c1ccncc1 was read as HPGD inh -3.3%.
CCCn1c(CN2CCN(c3cccc(Cl)c3)CC2)nc2c1c(=O)n(C)c(=O)n2C was read as HPGD inh -1.6%.
`COc1ccccc1Nc1ccc(C(=O)NC2CCCCC2)cn1` gave HPGD inh 15.8µM*.
`CN(C)c1nc(N)nc(CSc2nc3cc(Cl)ccc3o2)n1` gave HPGD inh -10.6%.
Screening COc1ccc(COc2cc(-c3cccc(OC)c3)nc3ccc(NC(=O)c4ccc(Cl)cc4)cc23)cc1 returned HPGD inh inconclusive.
`Cc1cccc(NC(=O)Cn2c(=O)n(CCc3c[nH]c4ccccc34)c(=O)c3cccnc32)c1` gave HPGD inh -10.6%.
For CC1(C)Cc2ccccc2-c2nnc(-c3ccccn3)n21 the results were HPGD inh -5.5%.
O=C1CN(C(=O)COc2cccc(F)c2)c2ccccc2N1 was read as HPGD inh -7.0%.
For CC(C)C[C@H](NC(=O)Nc1cccc(Cl)c1)C(=O)O the results were HPGD inh 2.8%.
CN(C)S(=O)(=O)c1ccc(Cl)c(NC(=O)CSc2nc3c(cc2C#N)C(=O)CCC3)c1 was read as HPGD inh -18.8%.
Screening CCOC(=O)COc1cc2c(C(=O)OCC)c(C)oc2cc1Br returned HPGD inh 0.2%.
Screening COc1ccc(-c2cc(C(=O)OCC(=O)N(C)C)c3ccccc3n2)cc1 returned HPGD inh inconclusive.
`N#Cc1nc(-c2ccc(OCc3ccccc3)cc2)oc1N1CCOCC1` gave HPGD inh inconclusive.
O=C(Cn1cc2c(n1)CCCCC2)NCCN1CCOCC1 was read as HPGD inh -7.3%.
`CCCn1c(=O)[nH]c(=O)c2c1nc(-c1ccccc1OC(F)F)n2CCOC` gave HPGD inh -20.2%.
`O=C(O)CC1SC(=Nc2cccc(O)c2)NC1=O` (configuration not stated) gave HPGD inh -9.6%.

5 records drawn at random from the list so far:
Screening C=CCn1c(=O)c2ccccc2n2c(SCc3nc4ccccc4s3)nnc12 returned HPGD inh -12.6%.
Screening COc1ccc(COc2cc(-c3cccc(OC)c3)nc3ccc(NC(=O)c4ccc(Cl)cc4)cc23)cc1 returned HPGD inh inconclusive.
For CN1CC2CCCC3(C1)C(=O)NC1(CCCCC1)N=C23 (configuration not stated) the results were HPGD inh -5.1%.
`O=C(O)CC1SC(=Nc2cccc(O)c2)NC1=O` (configuration not stated) gave HPGD inh -9.6%.
`Cc1ccc2cccc(O)c2[n+]1[O-]` gave HPGD inh -4.6%.

Later entries:
O=C1c2ccccc2-c2nc3ncnn3c(-c3ccccc3Cl)c21 was read as HPGD inh -3.8%.
For CC(C)N(Cc1cc2ccccc2[nH]c1=O)C(=O)C1CCCCC1 the results were HPGD inh -9.9%.
`O=C1C=CC(O)(c2cc(=O)c3c(O)cc(O)cc3o2)C=C1` gave HPGD inh -7.7%.
Screening CCOc1ccc2c(C)c(C)c(=O)oc2c1OCC returned HPGD inh -22.1%.
CCCCN1C=C(C(=O)OC)C(c2ccccc2C(F)(F)F)C(C(=O)OC)=C1 was read as HPGD inh inconclusive.
`COc1ccccc1-c1c(C)nn2c(N3CCN(c4ccccc4OC)CC3)cc(C)nc12` gave HPGD inh 85.3%[activator].
Nc1nc(CN2CCCCCC2)nc(Nc2ccc(F)cc2)n1 was read as HPGD inh -20.1%.
For OCCN1CCN(CC/C=C2\c3ccccc3Sc3ccc(C(F)(F)F)cc32)CC1 the results were HPGD inh -7.9%.
`Cc1cc(C)n2nc(C(=O)NC(C)(C)C)nc2n1` gave HPGD inh 3.1%.
COc1ccc(S(=O)(=O)N2CCCCC2)cc1NS(=O)(=O)c1cc(Cl)ccc1Cl was read as HPGD inh 2.9%.
For C=CCSc1nc(N)c(C(=O)Nc2ccccc2C)cc1C(N)=O the results were HPGD inh -9.1%.
COc1ccc(NC(=O)c2cc(C(C)C)on2)cc1OC was read as HPGD inh -13.7%.
Screening CC(C)COC(=O)NCCCOC(=O)Nc1ccccc1 returned HPGD inh -11.0%.
Screening O=C(c1coc(=O)c(Br)c1)N1CCOCC1 returned HPGD inh inconclusive.
O=C(COC(=O)C1CC2C=CC1C2)NCc1ccccc1Cl (configuration not stated) was read as HPGD inh -14.1%.
Screening COC(=O)c1cccc(NC(=O)c2nn(C(C)C)c(=O)c3ccccc23)c1 returned HPGD inh -8.9%.
`O=C(NNC1=NCCC1)c1cccc(S(=O)(=O)N2CCOCC2)c1` gave HPGD inh -2.2%.
COc1ccc(-c2cc3ccccc3oc2=O)cc1NC(=S)NC(=O)c1ccc2c(c1)OCCO2 was read as HPGD inh inconclusive.
Screening CC12CCC(C(=O)NCc3cccnc3)(OC1=O)C2(C)C (configuration not stated) returned HPGD inh 2.0%.
Cc1nn(Cc2ccccc2)c(C)c1NC(=O)CSc1nc(C2CC2)nc2c1cnn2-c1ccccc1 was read as HPGD inh -24.0%.
Screening CCOC(=O)N(Cc1ccccc1)C(C(=O)O)C(C(=O)O)N(Cc1ccccc1)C(=O)OCC (configuration not stated) returned HPGD inh -13.2%.
`COc1ccccc1NS(=O)(=O)c1cccc2cccnc12` gave HPGD inh -25.2%.
For CCc1ccc(-n2c(CSc3nnnn3-c3ccccc3)nc3ccccc3c2=O)cc1 the results were HPGD inh -10.9%.
For CN(c1cccc(NC(=O)c2ccccc2N(C)S(=O)(=O)c2ccccc2)c1)S(C)(=O)=O the results were HPGD inh -3.5%.
Screening CCCN1C[C@H](CSC)C[C@@H]2c3cccc4[nH]cc(c34)C[C@H]21 returned HPGD inh -4.8%&-0.2%&-8.1%.
For CNc1nc(C)c(C(=O)OCC(=O)OC)s1 the results were HPGD inh -11.6%.
Screening O=c1oc2ccccc2cc1-c1ccc(O)cc1O returned HPGD inh -8.0%.
CC(=O)Nc1ccccc1C=C1c2ccccc2-c2ccccc21 was read as HPGD inh -7.7%.
For COc1ccc(OC)c(NC(=O)CSC2=NCCS2)c1 the results were HPGD inh -16.6%.
Screening CCCCOc1cccc(C2C(C(=O)c3cccs3)=C(O)C(=O)N2Cc2cccnc2)c1 (configuration not stated) returned HPGD inh -11.2%.
For CC1(C(=O)O)CC(C)(C(=O)O)CC(C)(C(=O)O)C1 (configuration not stated) the results were HPGD inh -6.2%.
Screening COc1cccc(/C(C#N)=C/c2c(-c3ccc(Cl)cc3)nc3c(C)cccn23)c1 returned HPGD inh -9.5%.
Screening Oc1cc(NCc2cccnc2)ccc1-c1nc2ccccc2o1 returned HPGD inh inconclusive.
For Cc1csc(Cn2c(CN(C)C)nc3ccccc3c2=O)n1 the results were HPGD inh 4.8%.
For COCCN(C(=O)c1ccccc1)c1nnc(-c2cccnc2)s1 the results were HPGD inh 2.6%.
`C=CCc1cccc(/C=N/NC(=O)CNc2ccccc2)c1O` gave HPGD inh -15.7%.
For CS(=O)(=O)N(CC(=O)N1CCCCC1)c1sc2c(c1C#N)CCCC2 the results were HPGD inh 3.7%.
For CSC(=[SH+])N=N/C(=C1/C=CC=CN1)c1ccccn1.[Cu][Br] the results were HPGD inh inconclusive.
CC(C)NCCOCCSc1ccc(Cl)cc1 was read as HPGD inh -1.7%.
For Cc1cc2ncn(CC(O)COc3cccc(C(=O)O)c3)c2cc1C (configuration not stated) the results were HPGD inh -11.7%.
For Cc1ccc(C)c(NC(=O)c2ccccn2)c1 the results were HPGD inh -11.3%.
For COc1cc(C2C(C#N)=C(N)Oc3n[nH]c(-c4ccncc4)c32)cc(OC)c1OC (configuration not stated) the results were HPGD inh -18.0%.
C/C(CC(=O)NCCCN1CCOCC1)=N\NC(=O)COc1ccc(C)cc1 was read as HPGD inh -13.6%.
For O=c1c2ccccc2nnn1CSc1nnc2ccccn12 the results were HPGD inh -4.8%.
Screening COC(=O)c1cccc(S(=O)(=O)N2CCOCC2)c1 returned HPGD inh -3.7%.
`Cn1c(SCC(=O)Nc2ccc3nc(SCC(=O)NC4CC4)sc3c2)nnc1-c1ccccc1` gave HPGD inh 3.55µM*.
Cc1cccc(OCC(=O)Nc2ccc3c4c(cccc24)CC3)c1C was read as HPGD inh -7.3%.
